Compound activity: PubChem, SRMLSC
H5N1 CPE – antiviral screen in MDCK cells, H5N1 avian flu | cytopathic effect, luminescence, 72 h; stronger effect = higher value; no value below 0 was filed and about half of the inactive calls have no number; reference of the scale not given here | inhibition, % at 50 µM | actives 0.07% (n = 96,000) | AID 740; in the data active means inhibition above about 25%
* marks the source's active call; other numbers are inactive results; i = inactive.

SMILES	H5N1 CPE
Cc1nc2ccc(S(=O)(=O)NC(C(=O)NC3CCCC3)C(C)C)cc2s1 (configuration not stated)	0.5
CC(C)c1cc(NC(=O)CSc2nnc(-c3ccccc3F)n2C)on1	i
O=C(NCCCO)c1ccc2[nH]c3c(c2c1)CCCC3	i
Cc1ccc(/C=C2/SC(=S)N(CCC(=O)N3CCN(c4ccccc4)CC3)C2=O)cc1	1.4
O=C(CSc1n[nH]c(-c2ccccc2)n1)Nc1ncc(Br)cc1Br	0.4
CC(C)OC(=O)NCCOC(=O)Nc1cccc(Cl)c1	i
O=C(NC1=NCCS1)[C@H](Cc1ccccc1)N1C(=O)c2ccccc2C1=O	i
Cc1cc(=O)oc2cc(OCc3nnc(-c4ccccc4Br)o3)ccc12	0.1
O=C(NCC1CCCO1)c1sc(=S)n2c1[nH]c(=O)c1ccc(C(=O)N3CCCCC3)cc12 (configuration not stated)	1.0
O=C(O)CC1=C(O)C(=O)N(c2ccccc2)C1c1ccc(Br)cc1 (configuration not stated)	0.3
CCCCC1CC(C)(C(=O)CSc2nc3ccccc3s2)OC1=O (configuration not stated)	0.3
CC1=C(C(=O)NCc2ccc3c(c2)OCO3)C2(CCC(C)CC2)OC1=O (configuration not stated)	0.7
Cc1nc(SCC(=O)c2ccc(F)cc2)c([N+](=O)[O-])[nH]1	0.5
O=C(CCC(=O)OCc1ccc(Cl)cc1)Nc1cccc([N+](=O)[O-])c1	i
O=c1[nH]c(=O)n(Cc2ccccc2)c(O)c1C=NCCCn1ccnc1	1.1
O=c1ccc2c(o1)/C(=C/C=C(Cl)Cl)CCC2	3.5
c1ccc(CNC2=NCCCC2)cc1	i
C=CCc1cccc2cc(C(=O)N3CCN(C(=O)OCC)CC3)c(=O)oc12	0.6
O=C(NC1CC1)C1=COCCO1	0.8
CCCCC(CC)C(=O)Nc1ccccc1C(=O)NC(C)C (configuration not stated)	0.5
COC1(c2cc(-c3ccccc3)nc(N)n2)CCCCC1	0.9
CCCNC(=O)CN(C1CCCCC1)S(C)(=O)=O	i
CC1CCc2c(sc3ncnc(N4CCOCC4)c23)C1 (configuration not stated)	0.5
CCCc1cc2c(cc1NC(=O)c1ccccc1Cl)OCO2	0.6
Cc1ccc(NC(=O)C2C3C=CC4(CN(Cc5cccnc5)C(=O)C24)O3)cc1F (configuration not stated)	0.0
Following part:
SMILES	H5N1 CPE
COc1ccc(O)c(C2NC(CC(C)C)(C(=O)O)C3C(=O)N(Cc4ccccc4)C(=O)C23)c1 (configuration not stated)	0.4
O=C(Nc1cccc(C(F)(F)F)c1)c1cccnc1	i
CCN(CC)C(=O)c1cc2sc3ccccc3c2s1	3.3
O=C(Nc1ccccc1C(F)(F)F)NC1CCCCCCC1	0.7
Cc1cccc(Cc2cnc(NC(=O)c3ccc(C)o3)s2)c1	i
CC(=O)COC(=O)c1cccc(N2C(=O)C3C4C=CC(C4)C3C2=O)c1 (configuration not stated)	i
COC(=O)c1scc(C)c1NC(=O)Cc1ccccc1	13.9
O=C(CCc1ccccc1)Nc1cccc(-c2nnc(-c3ccco3)o2)c1	0.1
COCCn1c(C)cc(C(=O)COC(=O)CCc2ccc(S(=O)(=O)N3CCOCC3)cc2)c1C	0.2
COc1ccc(-c2noc(CSc3nc4sc(C)c(C)c4c(=O)n3-c3ccccc3)n2)cc1OC	0.2
CC(C)C(CC(=O)NCc1ccco1)c1ccco1 (configuration not stated)	0.8
COc1ccccc1NC(=O)CSc1nnc(C2CCCCC2)o1	i
Cc1nc2cc3ccccc3cc2c(=O)[nH]1	i
Clc1ccc2ncc(-c3nnnn3-c3ccccc3)c(-c3ccccc3)c2c1	9.5
COc1cccc(CSc2nnc(C(F)(F)F)n2Cc2ccc(F)cc2)c1	0.6
c1csc(-c2csc(-c3cccs3)n2)c1	3.3
CC(C)OC(=O)Cn1nnc(-c2ccccc2)n1	i
CCC(C)NC(=O)Cn1cnc2sc(C)cc2c1=O (configuration not stated)	i
CSc1nc(-c2ccco2)nn1S(=O)(=O)c1ccccc1	0.3
CNC(=O)Nc1cc(C(C)(C)C)no1	1.6
CCC(C)c1ccc(S(=O)(=O)N2CCN(C(=O)COc3ccc4c(C)cc(=O)oc4c3)CC2)cc1 (configuration not stated)	5.3
Cc1ccc(C(=O)NCCCn2ccnc2)cc1[N+](=O)[O-]	i
CCC(c1nnnn1CCc1ccccc1)N1CCN(C(=O)c2ccco2)CC1 (configuration not stated)	2.2
Cc1ccc(NC(=S)NCC2CCCO2)cc1 (configuration not stated)	1.7
CS(=O)(=O)N1CCN(C(=O)c2ccc(-c3ccccc3)cc2)CC1	1.3

Four entries drawn at random from those above:
SMILES	H5N1 CPE
COc1ccccc1NC(=O)CSc1nnc(C2CCCCC2)o1	i
Cc1ccc(C(=O)NCCCn2ccnc2)cc1[N+](=O)[O-]	i
CS(=O)(=O)N1CCN(C(=O)c2ccc(-c3ccccc3)cc2)CC1	1.3
CC(=O)COC(=O)c1cccc(N2C(=O)C3C4C=CC(C4)C3C2=O)c1 (configuration not stated)	i

Next records.
SMILES	H5N1 CPE
Cc1nn(Cc2ccc(Cl)c(Cl)c2)c(C)c1NC(=O)c1cc(-c2ccco2)on1	0.6
CCc1nc(N[C@@H](CC(C)C)C(=O)O)c2oc3ccccc3c2n1	i
CC(C)(C)OC(=O)NC(CCNC=C1C(=O)OC(C)(C)OC1=O)C(=O)O (configuration not stated)	i
O=C(COc1ccc(Br)cc1)NCc1ccccn1	0.6
CCOC(=O)c1c(C=O)c(C)n(Cc2ccccc2Cl)c1C	1.2
CCOC(=O)c1oc2c(c1C)/C(=N/O)CCC2	0.0
Cc1csc(NC(=O)CSc2nnc3c4ccccc4nc(C(C)(C)C)n23)n1	2.1
CCOC(=O)Nc1ccc(S(=O)(=O)NCc2ccccc2)cc1	i
CC(C)Cn1c(=O)c(C(=O)Nc2ccccc2S(N)(=O)=O)c(O)c2ccccc21	i
O=C1c2ccccc2CN1CCNS(=O)(=O)c1ccc(Cl)cc1	0.3
CCOc1ccc(C2C(C(=O)Nc3ccc(F)cc3)=C(C)Nc3nc(CCCO)nn32)cc1 (configuration not stated)	1.5
Cc1ccc2c(c1)CCCN2C(=O)c1ccco1	i
Cc1ccc(C(=O)n2c(=S)nc3ccccn32)cc1	i
CC1=C(C(=O)N2CCC3(CC2)OCCO3)C2(CCC(C)CC2)OC1=O (configuration not stated)	0.4
CCc1ccc2nc(SCC(=O)N(CC)CC)c(C#N)cc2c1	2.1
O=C(Nc1ccc(Cl)cc1)Nc1ccc2c(c1)N1CCN=C1S2	i
COc1cccc(-n2c(CNc3ccc(F)cc3)nnc2SCC(N)=O)c1	0.2
O=C(O)c1ccccc1S(=O)CCO (configuration not stated)	0.1
O=C(CN1C(=O)CSC1=O)Nc1ccccc1N1CCOCC1	0.0
COc1cc(OC)c(C2C(C#N)=C(N)Oc3cc(C)n(CCCN4CCOCC4)c(=O)c32)cc1OC (configuration not stated)	i
CCn1nc(C)c(C(=O)Nc2cc(Oc3ccc(Cl)cc3)cc([N+](=O)[O-])c2)c1C	i
CCOC(=O)c1cc2cc(C)ccc2[nH]1	i
CCc1nnc(NC(=O)c2ccncc2)s1	0.6
COc1cc(C(=S)N2CCCC2)cc(OC)c1O	i
COc1ccc(Sc2nc3ccccc3n3c(C(F)(F)F)nnc23)cc1	3.2

Laid out differently: entries from further up
SMILES | H5N1 CPE
COc1cccc(-n2c(CNc3ccc(F)cc3)nnc2SCC(N)=O)c1 | 0.2
O=C(O)c1ccccc1S(=O)CCO (configuration not stated) | 0.1
O=C(CN1C(=O)CSC1=O)Nc1ccccc1N1CCOCC1 | 0.0
COc1cc(OC)c(C2C(C#N)=C(N)Oc3cc(C)n(CCCN4CCOCC4)c(=O)c32)cc1OC (configuration not stated) | i
CCn1nc(C)c(C(=O)Nc2cc(Oc3ccc(Cl)cc3)cc([N+](=O)[O-])c2)c1C | i

The list continues.
SMILES	H5N1 CPE
CN(C1CCS(=O)(=O)C1)S(=O)(=O)c1ccc(N2CCCC2=O)cc1 (configuration not stated)	1.9
COCCn1c(=NC(=O)CSC(C)=O)sc2cc(OC)ccc21	0.2
O=C(NC1CCCCCCC1)c1ccco1	1.2
O=C(CN1C2=NCCN2c2ccccc21)N1CCOCC1	i
CC(CN(C)Cc1ccccc1)OC(=O)c1ccc2c(c1)OCCO2 (configuration not stated)	i
O=C(Nc1nc(-c2ccncc2)cs1)c1ccc(S(=O)(=O)N2CCOCC2)cc1	0.4
CN(C)c1cc(O)c(C(=S)Nc2ccccc2)c(N(C)C)c1	i
CCOC(=O)c1c(NC(=O)CCN2C(=O)c3ccccc3C2=O)sc(C(=O)OC(C)C)c1C	2.2
Cc1cc(C)c(S(=O)(=O)O)c(C)n1	0.1
CC1Cc2ccccc2N1Cc1nc2cc(Cl)ccc2c(=O)[nH]1 (configuration not stated)	0.6
CC1CC(C)CN(CCCn2c(=S)[nH]c3ccccc3c2=O)C1 (configuration not stated)	i
Cc1nn(CC(O)COc2ccc3c(c2)CCC3)c(C)c1C (configuration not stated)	0.9
CCn1cc(C(=O)Nc2ccc(OC)c(OC)c2)c2cc(OC)c(OC)cc2c1=O	0.8
CC(=O)c1cccc(NC(=O)N2CCCC2C(=O)NCc2ccccc2)c1 (configuration not stated)	0.5
CCN(c1ccc(NC(=O)COC(=O)c2ccc(C)c(S(=O)(=O)N3CCOCC3)c2)cc1)C(C)C	2.6
CCCC(=O)Nc1c(O)c2ccccc2[nH]c1=O	i
COC(=O)C1=C(N)Oc2cc(C)n(Cc3cccnc3)c(=O)c2C1c1ccc(OC)c(OC)c1OC (configuration not stated)	i
CCC(C)(C)n1nnnc1C(c1cc2cc(OC)c(OC)cc2[nH]c1=O)N1CCc2ccccc21 (configuration not stated)	i
CCCCNC(=O)CCNS(=O)(=O)c1ccc(C)cc1	0.4
O=C1c2ccccc2C(O)(Cc2ccccc2)N1CCCN1CCOCC1 (configuration not stated)	1.1
COc1ccc(NC(=O)c2ccco2)cc1NC(=O)c1ccc(Br)o1	0.1
NC(=O)C1CCCN(S(=O)(=O)c2ccccc2)C1 (configuration not stated)	0.5
CC(C)CC(=O)N1CCC(O)(CS(=O)(=O)Cc2ccc(Cl)cc2)CC1	i
CCCCCCC(=O)Nc1nc(C)c(-c2csc(Nc3cccc(OC)c3)n2)s1	i
COc1ccccc1CNC(=O)c1cnc2ccccn2c1=O	2.2

A draw from above in order of number of heavy atoms, rising:
SMILES	H5N1 CPE
CCCCNC(=O)CCNS(=O)(=O)c1ccc(C)cc1	0.4
CN(C)c1cc(O)c(C(=S)Nc2ccccc2)c(N(C)C)c1	i
CCOC(=O)c1c(NC(=O)CCN2C(=O)c3ccccc3C2=O)sc(C(=O)OC(C)C)c1C	2.2

Continuation:
SMILES	H5N1 CPE
Cc1csc(N(C(=O)c2cccc(S(=O)(=O)N(C)C)c2)c2ccccc2)n1	i
COc1cnc(-c2ccccc2)nc1Oc1ccc(C(C)(C)C)cc1	i
CCC(CC)C(=O)Nc1cccc(C(=O)N2CCCCCC2)c1	i
CSCCC(NC(=O)C1CCC(C)CC1)C(=O)N1CCN(c2ccccn2)CC1 (configuration not stated)	i
CCOC(=O)Cn1c(=O)c(-c2ccccc2NC)nc2ccccc21	0.2
COC(=O)C(C(=O)Nc1cccc(C)n1)C1CCCCCC1 (configuration not stated)	0.3
COC(=O)c1ccccc1OCC(=O)NC1CCCCC1	1.1
Cc1ccc(NC(=O)CCC(C(=O)O)N2C(=O)c3ccccc3C2=O)cc1 (configuration not stated)	i
Cc1ccccc1-n1c(SCc2ccccn2)nc2n[nH]c(C)c2c1=N	0.8
COc1cccc(Oc2cncnc2-c2ccc(OC)cc2O)c1	0.7
O=C(NC1CCCCC1)C(c1ccc(F)cc1)N(Cc1ccco1)C(=O)Cn1nnc2ccccc21 (configuration not stated)	i
CCOC(=O)COc1ccc(Oc2nc(C)cc(OC)n2)nn1	i
CCNC(=O)CN(c1ccc(OC)c(OC)c1)S(=O)(=O)c1ccccc1	1.0
CC(=O)C1C(c2ccncc2)NC(=O)NC1(O)C(F)(F)F (configuration not stated)	i
Cc1occc1-c1nnc(SCC(=O)Nc2nccs2)n1CCc1ccccc1	1.3
CON(C)c1nc(Oc2ccc(=O)[nH]n2)nc(N(C)C)n1	i
CCCCNC(=O)c1c(N)n(/N=C/c2ccccn2)c2nc3ccccc3nc12	i
COc1ccc(NC(=O)CNS(=O)(=O)c2cccs2)c(OC)c1	0.4
COC(=O)c1cn(CC(=O)NC2CCCCC2)c2ccccc12	1.5
Cc1ccc(OCC(=O)N2N=C(C(F)(F)F)CC2(O)C(C)(C)C)cc1C (configuration not stated)	i
Clc1ccccc1C1CC(c2ccccc2)Nc2ncnn21 (configuration not stated)	2.3
COCCCn1c(SCc2cccc(OC)c2)nc2cc(OC)c(OC)cc2c1=N	4.5
Cc1ccc2c(c1)CCCN2C(=O)Nc1ccc2c(c1)OCO2	0.7
CC1(C)CC(=O)C(C(c2ccccc2F)C2C(=O)CC(C)(C)CC2=O)C(=O)C1	0.5
CCOC(=O)c1c(-c2ccccc2)csc1NC(=O)c1ccc(S(=O)(=O)N2CC(C)OC(C)C2)cc1 (configuration not stated)	1.3
Cc1ccc(N)cc1-n1c(C)ccc1C	i
O=C(NCCc1c[nH]c2ccccc12)C1CCN(c2nnc(N3CCCC3=O)s2)CC1	1.0
Cc1ccccc1-n1nnnc1Sc1nnnn1-c1ccccc1	i
CCN(CC)c1ccc(NC(=O)Cn2cc3c(n2)CCC(C)C3)c(C)c1 (configuration not stated)	0.7
CCOc1ccccc1-n1nnnc1SCc1nc2ccccc2s1	i

A portion of the library; count on the stated rates, not on these rows.
